# From PubChem BioAssay
# eIF4H FP inh: inhibitors of RNA binding by human eIF4H; 290,000 tested, 0.94% active; eIF4H fluorescence polarization binding assay; Q15056; inhibition, % at 35 µM; AID 2012;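 active = 50% or more with normal probe brightness, or confirmed in later tests; inconclusive = above 50% with abnormal brightness, or retests that disagree; inactive = below 50% or failed in later tests; about a fifth of its hits are not listed in these tables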;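 note: calls also rest on retests at 20 µM and on dose response follow-up; 0% = protein and probe with vehicle and 100% = probe without protein; strong numbers were not always called active; many hits fall short of the cut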
# CSC inhib: blocks cancer stem cells; inhibition, % at 7.5 µM; cancer stem cell-like cells viability, luminescence; AID 2717; 300,000 tested, 1.1% active;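 active = mean at 75% or more and at least half the replicates too; inconclusive = mean and replicates disagree; tested in HMLE shEcad cells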;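 note: 0% = median of negative and 100% = median of positive control wells; the first replicate is given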
# PABP FP inh: blocks human PABP binding to poly(A) RNA | P11940 | fluorescence polarization | inhibition, % at 35 µM | 290,000 tested, 1% active;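 active = 50% or more with normal probe brightness, or confirmed in later tests; inconclusive = above 50% with abnormal brightness, or retests that disagree; inactive = below 50% or failed in later tests; about a fifth of its hits are not listed in these tables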;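 note: calls also rest on retests at 20 µM and on dose response follow-up; controls were probe without protein and protein plus probe with vehicle; some compounds called inactive have numbers as strong as hits; many hits fall short of the cut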
# Target sequence (P11940 whole entry, looked up): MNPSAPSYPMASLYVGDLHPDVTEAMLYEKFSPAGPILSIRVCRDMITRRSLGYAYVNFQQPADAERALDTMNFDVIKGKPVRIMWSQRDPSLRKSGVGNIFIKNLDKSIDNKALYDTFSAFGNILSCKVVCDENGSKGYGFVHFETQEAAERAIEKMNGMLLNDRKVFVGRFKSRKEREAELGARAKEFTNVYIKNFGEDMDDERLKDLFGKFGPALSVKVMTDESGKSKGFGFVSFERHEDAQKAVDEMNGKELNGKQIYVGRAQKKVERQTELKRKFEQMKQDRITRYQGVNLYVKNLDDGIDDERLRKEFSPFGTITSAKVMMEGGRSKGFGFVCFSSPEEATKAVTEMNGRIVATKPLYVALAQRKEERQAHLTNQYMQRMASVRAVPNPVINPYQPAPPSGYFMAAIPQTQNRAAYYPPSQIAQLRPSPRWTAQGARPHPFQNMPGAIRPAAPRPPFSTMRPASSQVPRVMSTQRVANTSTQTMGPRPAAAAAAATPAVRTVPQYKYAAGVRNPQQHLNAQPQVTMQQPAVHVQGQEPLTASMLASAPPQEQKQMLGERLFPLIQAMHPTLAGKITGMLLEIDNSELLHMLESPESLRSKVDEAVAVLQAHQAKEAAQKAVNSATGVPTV
# Env fusion inh: blocks HIV Env-driven cell-cell fusion | HeLa-JRFL Env/CEM21 cell fusion, luciferase | 360,000 tested, 1.1% active | inhibition, % at 12.3 µM | AID 651610;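 active = mean replicate inhibition score of at least 50 and every replicate individually at or above 50; inconclusive = only one of the two criteria met; inactive = mean below 50 and not all replicates reaching 50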;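 note: 0% = plate neutral controls and 100% = maraviroc near 300 nM; one replicate is shown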
# Yeast UUG start: yeast start codon fidelity modulation. activity score, % at 18.7 µM. S. cerevisiae UUG-firefly luciferase reporter, luminescence/redox ratio. 350,000 tested, 0.13% active;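 active = replicate mean at a twofold rise or more, about +100% in these data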;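 note: firefly luciferase made from a UUG start codon reports start codon fidelity; reporter light over untreated wells divided by growth signal over untreated wells; some hits fall short of that in this replicate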
# Rce1 inh: inhibitors of yeast Ras-converting enzyme; Q03530; yeast membranes, quenched prenylated peptide cleavage fluorescence; calls only; 290,000 tested, 0.27% active;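 active = fall in fluorescence gain of 50% or more versus controls, with final raw signal at or below 3038400; inconclusive = same 50% fall but final raw signal above 3038400; inactive = fall in fluorescence gain under 50%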;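 note: plate controls were neutral control wells for no effect and wells lacking membranes for full effect; tested at 10 µM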
# MT1-MMP act inh: inhibitors of human MT1-MMP activation | P50281 | HT1080 RFP-PRO-GFP cells, GFP/RFP ratio fluorescence, overnight; percent of plate control window, DMSO zero | GFP/RFP ratio change, % at 20 µM | 360,000 tested, 0.061% active;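 active = GFP/RFP ratio change of at least 30% with cell ATP level not reduced by more than half and red fluorescence within 50% of control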; note: strong numbers were not always called active
#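 Assay system: HT1080 RFP-PRO-GFP cells. Benchmarks: DMSO vehicle wells and RFP-L50D-GFP reporter cell wells. Times: overnight cell settling, then overnight compound exposure, 37 °C, 5% CO2. Compound: 20 µM single dose, 1% DMSO. Read-out basis: GFP/RFP fluorescence ratio.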
# eIF4H FP inh retest: also measured in eIF4H FP inh; calls as there; inhibition, %; compound at 20 µM; confirmation average;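 mean of two retest wells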
# PABP FP inh retest: further read-out of PABP FP inh, marked with its call; inhibition, %; compound at 20 µM; confirmation repeats;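 mean of two retest wells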
# MT1-MMP act inh RFP: second read-out of MT1-MMP act inh, no call of its own (marks repeat the call); RFP signal change, %; measured here: RFP expression control read;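 0 = vehicle wells; hits needed this value within 50% of zero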
# An asterisk follows results filed as active; i = inactive; ? = inconclusive; / = not tested or not shown; & = joins results of further samples. No enrichment for hits (roughly 2.9% active in at least one column).
SMILES,eIF4H FP inh,CSC inhib,PABP FP inh,Env fusion inh,Yeast UUG start,Rce1 inh,MT1-MMP act inh,MT1-MMP act inh RFP,others
CCOC(=O)C1(CCOC)CCN(C/C=C/c2ccccc2OC)CC1,/,-1,/,6,8,i,2,-3,
Cc1ccc(C2=NN(C(=O)CN3C(=O)c4ccccc4S3(=O)=O)C(c3ccco3)C2)cc1 (stereo unspecified),-2,6,7,-4,/,i,0,-2,
Cc1ccc(/C=C2\SC(N3CCN(C(c4ccccc4)c4ccccc4)CC3)=NC2=O)o1,53,47,-7,-11,/,i,-20,-3,eIF4H FP inh retest=-11;PABP FP inh retest=2
N#Cc1ccccc1S(=O)(=O)N1CCC(C(=O)Nc2cccc(C(=O)NC3CC3)c2)CC1,/,/,/,8,-5,/,1,0,
Cc1ccccc1C(=O)Nn1cnnc1,-7,-14,6,-12,-17,i,-1,1,
Cc1cccc(Oc2coc3cc(OC(=O)c4cc5ccccc5oc4=O)ccc3c2=O)c1,1,-3,-6,-2,-14,i,8,5,
Cc1cc(C)c2c(=O)n3c(nc2c1)C(Cc1ccc(O)cc1)NC(=O)c1cc2ccccc2cc1-3 (stereo unspecified),/,/,/,-124,-7,/,-23,-21,
COc1ccccc1N/N=C/c1ccc2c(c1)OCO2,-9,2,-6,3,-15,i,1,5,
O=C1CCCc2oc3c(cc(NS(=O)(=O)c4ccc5c6c(cccc46)C(=O)N5)c4ccccc43)c21,5,33,16,4,/,i,-8,-9,
C/C(=N/NC(=O)CNc1ccc(C)cc1)c1ccc(Br)s1,0,/,-7,/,-14,i,-1,-2,
CC1(c2nnc(-c3cccc(Cl)c3)o2)CC(c2ccc(Cl)cc2)=NO1 (stereo unspecified),/,9,/,2,-15,i,-1,3,
CCN(c1ccccc1)S(=O)(=O)c1ccc2c(c1)CC(C)N2C(=O)C1CC1 (stereo unspecified),-3,-17,0,-3,-11,i,2,-5,
Cc1ccc(CN(C)C(=O)c2ccccc2Oc2ccccc2)o1,2,-10,-7,-43,2,i,-4,3,
COc1ccc(NC(=O)CNC(=O)Cc2cccc3ccccc23)cc1,/,-2,/,-5,8,/,-2,-1,
Cc1cc(C(C)(C)C)cc(S(=O)(=O)Nc2cccc(C(=O)O)c2)c1C,0,-6,0,/,-14,i,5,1,
COC(=O)C(C)n1cnc2c(cnn2-c2ccc(Cl)cc2)c1=O (stereo unspecified),-8,-2,-9,/,-12,i,-2,-13,
CCOc1ccc(OCCCC(=O)NCCc2ccc(OC)cc2)cc1,-16,-9,6,-13,9,i,-1,-3,
O=C(CSc1ccccc1)NCCc1ccccc1,45,-8,10,-13,3,/,1,-1,
COc1ccc(/C=C/c2nnc(NC(=O)COc3cccc(C)c3)s2)cc1,-1,20,-6,-7,/,i,3,3,
COc1ccccc1-c1cn[nH]c(=S)n1,-12,-11,-5,-140,-11,i,1,3,
CCOc1ccccc1NC(=O)Nc1cccc(S(N)(=O)=O)c1,4,-9,-2,-15,-8,i,1,-3,
NC(=O)[C@H]1CC2(CC(c3cccc(NC(=O)COc4ccc(Cl)cc4)c3)=NO2)CN1C(=O)Cc1ccc([N+](=O)[O-])cc1 (stereo partly specified),-14,4,6,12,-4,i,21,-28,
O=[N+]([O-])c1ccc(Sc2ccccc2Cl)nc1,-1,-1,8,12,-5,i,3,1,
Cc1nn(C)c(C(=O)NNC(=S)Nc2ccc(Cl)cc2)c1[N+](=O)[O-],6,-11,4,1,-25,i,6,0,
COc1cccc2c1c(NC(=O)c1cc(C)on1)nn2C,-10,-19,8,4,-3,i,1,-2,
OC[C@@H]1CN(Cc2ccccc2)C[C@H](n2cnc3c(N4CCOCC4)ncnc32)O1,/,/,/,-7,-13,/,7,-3,
O=C(NCc1ccccc1F)C(=O)NCC1OCCCN1S(=O)(=O)c1cccs1 (stereo unspecified),-12,3,3,/,-14,i,-1,0,
COc1cccc(OC)c1C(=O)Nc1ccncc1,/,-7,/,-1,/,i,2,3,
COCCn1c(N)c(NCc2ccccc2)c(=O)n(CC(=O)Nc2cc(C)ccc2C)c1=O,-2,-7,-18,/,/,i,-4,1,
Nc1c(C(=O)Nc2ccccc2)c2nc3ccccc3nc2n1CCCN1CCOCC1,-15,98*,-14,3,-14,i,0,0,
Cc1ccc(S(=O)(=O)N2[C@H](c3ccccc3)CC(=O)[C@@H]3CN(S(=O)(=O)c4ccccc4)[C@H](c4ccccc4)C[C@@H]32)cc1,/,/,/,-129,-10,/,-3,-5,
C[C@H](O)C#Cc1ccc2c(c1)O[C@@H](CN(C)Cc1ccc(-c3ccccc3)cc1)[C@H](C)CN([C@@H](C)CO)S2(=O)=O,/,/,/,13,22&15,/,-11,-20,
CC1CCCCN1S(=O)(=O)c1ccc(S(=O)(=O)N(CC(=O)Nc2ccccc2)Cc2cccs2)cc1 (stereo unspecified),2,61,-4,20,/,i,-6,-10,
Cc1c(NS(=O)(=O)c2cc(C(=O)NCC3CCCO3)cc(Cl)c2Cl)c(=O)n(-c2ccccc2)n1C (stereo unspecified),/,-7,/,-8,/,i,4,2,
Cn1c(=O)n(CC(=O)N2CCN(c3nnc(-c4ccccc4)c4ccccc34)CC2)c2ccccc21,5,1,-3,-23,-12,i,0,-8,
CCn1c(=O)c(C(=O)NCc2ccc3c(c2)OCO3)c(O)c2ccccc21,-3,11,5,-17,-9,i,-4,3,
O=C(O)c1ccc(S(=O)(=O)c2ccc3c(c2)C(=O)N(NC(=O)c2ccccc2)C3=O)cc1,3,-27,-6,19,-4,i,-6,-2,
NC(=O)C1CCN(C2CC(=O)N(Cc3cccs3)C2=O)CC1 (stereo unspecified),6,/,-7,/,-15,i,3,4,
CCOCCCn1c(=S)[nH]c2cc(C(=O)NCCCN(CC)CC)ccc2c1=O,-5,25,-4,-7,-18,i,1,2,
COc1cc(/C=N/NC(=O)Cc2cccs2)c([N+](=O)[O-])cc1OC,10,-6,14,3,-14,i,-7,3,
CCOC(=O)c1cc(/C(C)=N/OC(=O)c2ccc(C(C)(C)C)cc2)on1,1,16,4,15,/,i,-4,0,
CCCCn1c(N)c(N(CCC(C)C)C(=O)c2ccc(N3CCCC3=O)cc2)c(=O)[nH]c1=O,/,-6,/,-6,/,i,-2,-2,
COc1ccccc1CNc1cc(CSc2ccc(Cl)cc2)nc(C)n1,-14,8,-5,/,4,i,-5,-8,
Cc1ccc(CS(=O)(=O)Cc2ccc(C(=O)NCc3ccccn3)o2)cc1,14,-9,5,/,-23,i,-4,3,
Cc1ccc2nc(N(CCCN(C)C)C(=O)c3ccco3)sc2c1,2,-3,-11,1,/,i,4,1,
CCOC(=O)c1c(C)[nH]c(C(=O)OC(C)C(=O)Nc2ccc(C)cc2)c1C (stereo unspecified),/,/,/,5,-9,/,2,2,
Cc1ccc(NC(=O)C[n+]2ccccc2)cc1C,-3,-16,4,21,-9,i,-1,1,
O=C(c1cc(-c2ccc(Cl)c(Cl)c2)on1)N1CCCCC1,0,7,-6,-91,2,i,1,-1,
COCC(C)NC(=O)COCc1cc(-c2ccc3c(c2)OCO3)on1 (stereo unspecified),-1,-29,-6,-3,-15,i,2,3,
O=C(Nc1cccc(Cl)c1)Nc1c[nH]c(=O)[nH]c1=O,4,-6,6,7,-7,i,-1,4,
CC(C)Oc1nc(-c2ccc(Cl)cc2)nc2ccccc12,4,15,-4,19,-14,i,-1,-3,
Cc1ccc(S(=O)(=O)N2CCCCC2)cc1NC(=O)CSc1nnc(C2CC2)n1N,/,9,/,/,-4,/,-3,-1,
Cc1ccc(C)c(NC(=O)CN2C(=O)C3CC=CCC3C2=O)c1 (stereo unspecified),/,/,/,-23,-19,/,-2,3,
Cc1ccc(-c2csc(NCCc3nc4cc(Cl)c(Cl)cc4n3CCCO)n2)cc1,/,11,/,44,-22,i,3,0,
COc1cccc(N(CC(=O)NC2CCCC2)C(=O)CCC(=O)Nc2cc(C)on2)c1,5,/,2,2,-3,i,1,3,
NS(=O)(=O)c1cccc(NC(=O)c2ccccc2NS(=O)(=O)c2ccc(F)cc2)c1,0,6,-13,-14,-10,i,-2,1,
COC(=O)n1c(SC)nc2ccccc21,12,8,-9,/,-4,i,-4,-2,
O=C(CSc1n[nH]c(-c2ccccc2)n1)c1ccccc1,3,9,23,-13,-9,i,2,3,
Cc1ccccc1Cn1cc(NS(=O)(=O)c2cn(C)nc2C)cn1,-7,/,6,-2,-7,i,0,3,
O=C(O)CCCNc1cc(N2CCN(C(=O)c3ccco3)CC2)c2noc3c2c1C(=O)c1ccccc1-3,?,6,?,20,-14,i,-22,20,

# Continued; it opens with the 2 that closed the last part.
SMILES,eIF4H FP inh,CSC inhib,PABP FP inh,Env fusion inh,Yeast UUG start,Rce1 inh,MT1-MMP act inh,MT1-MMP act inh RFP,others
Cc1ccccc1Cn1cc(NS(=O)(=O)c2cn(C)nc2C)cn1,-7,/,6,-2,-7,i,0,3,
O=C(O)CCCNc1cc(N2CCN(C(=O)c3ccco3)CC2)c2noc3c2c1C(=O)c1ccccc1-3,?,6,?,20,-14,i,-22,20,
O=C(c1[nH]ncc1-c1ccc(Cl)cc1)C1CO1 (stereo unspecified),-4,57,0,27,-12,i,-2,-8,
CN1/C(=C\C=N\O)C(C)(C)c2ccccc21,-3,23,-5,20,8,i,3,5,
Cc1nnc(SCc2cccc(Cl)c2)n(N)c1=O,-4,-14,-5,7,/,i,4,0,
COc1ccccc1C(=O)N1CCN(C(=O)Cc2ccccc2)CC1,-2,-1,-2,-1,3,i,1,4,
CN1CCN(CCCNC(=O)C2CC(=O)N(C3CCCCC3)C2)CC1 (stereo unspecified),6,-6,-8,/,11,i,3,7,
Cc1cccc(S(=O)(=O)NC(Cc2c[nH]c3ccccc23)C(=O)O)c1 (stereo unspecified),-7,-6,4,/,-24,i,0,7,
COc1ccc(CNC(=O)CN(c2ccccc2OC)S(=O)(=O)c2cccs2)cc1,/,-6,/,10,1,/,-7,-4,
Cc1ccc([N+](=O)[O-])cc1NC(=O)CCCOc1ccccc1,1,12,-8,-57,5,i,7,1,
Cc1ccc(NC(=O)c2cnccn2)cc1S(=O)(=O)N1CCCCCC1,/,-9,/,21,/,/,5,-1,
Cc1cc(C)n2nc(C(=O)OCC(=O)NCc3ccc(F)cc3)nc2n1,/,-5,/,/,2,/,-2,-3,
O=C(O)c1ncc(Cl)c(Cl)c1Cl,-6&12,-8&-2,-6&17,-8&-42,/,i,0&-5,4&-1,
COC(=O)c1cc2c(ccn2-c2ccc(F)cc2)n1Cc1cccc(OC)c1,4,38,-1,19,-17,i,-7,-3,
COc1ccccc1C(CNC(=O)C(C)(C)Oc1ccc(Cl)cc1)N1CCCC1 (stereo unspecified),/,-10,/,13,/,i,-1,-1,
CC(C)OC(=O)/C(=C/c1ccc2c(c1)c1ccccc1n2C)NC(=O)c1ccccc1,-5,-3,-10,-16,-9,i,-1,-6,
CSc1ccc(C(=O)C2CCCN(Cc3ccc(N4CCNC4=O)cc3)C2)cc1 (stereo unspecified),2,-7,-21,13,-9,i,7,5,
O=c1[nH]c(CSc2nnc(-c3ccncc3)n2Cc2ccco2)nc2ccccc12,-7,-8,7,-24,-15,i,-3,-3,
COc1ccccc1CNC(=O)CSc1ccc(C(=O)Nc2ccccc2OC)cc1[N+](=O)[O-],-5,0,-8,16,/,i,6,-1,
